CtBP-E1A inh: qHTS Assay for Inhibitors of the CtBP/E1A Interaction | AlphaScreen GST-E1A/His-CtBP binding, 1536-well; hits give low values; control for the full effect not named in the record | activity change, % (test concentration not listed) | hit rate 0.49% among 340,000; in the data active means activity change below about -65%; inconclusive means about -30% to -65%; inactive means above about -30%; further: on the % scale 0 is the no-effect control and ±100 the full control effect; compound concentration not given in the record
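In 5 uL wells, 23 nL compound meets equimolar GST-E1A and His-CtBP (5X stock 125 nM each) for 2 h, 37 °C. Beads (5X, 50 ug/mL) then 1 h, 37 °C, dark.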
D2 agonist: Beta-Arrestin HTS for Positive Allosteric Modulators of the Human D2 Dopamine Receptor: Agonists. hit rate 0.084% among 360,000. AID 624465, 2012. DiscoveRx PathHunter D2 beta-arrestin, luminescence, 90 min; 100% = 57 uM dopamine signal. activation, % (no concentration beside the values); in the data active = activation above about 40%; inconclusive = about 15% to 40%; inactive = below about 15%; further: compound concentration not given in the record; the text of the record calls up to 30% inactive
Target sequence (P14416 whole entry, looked up): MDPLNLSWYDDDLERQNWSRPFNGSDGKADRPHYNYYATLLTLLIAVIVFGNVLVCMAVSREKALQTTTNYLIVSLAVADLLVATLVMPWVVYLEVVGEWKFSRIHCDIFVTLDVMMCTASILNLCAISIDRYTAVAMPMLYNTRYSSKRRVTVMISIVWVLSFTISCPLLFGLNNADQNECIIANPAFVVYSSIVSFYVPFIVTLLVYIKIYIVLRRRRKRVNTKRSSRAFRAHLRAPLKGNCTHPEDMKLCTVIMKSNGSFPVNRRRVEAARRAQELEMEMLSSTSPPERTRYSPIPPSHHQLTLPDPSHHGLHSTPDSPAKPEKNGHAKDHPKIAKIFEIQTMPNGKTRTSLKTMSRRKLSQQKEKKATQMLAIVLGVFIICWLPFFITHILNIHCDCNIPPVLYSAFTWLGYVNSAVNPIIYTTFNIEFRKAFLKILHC
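Agonist mode: compounds alone added to overnight-plated D2 PathHunter cells for 90 min at 37 C, with 57 uM final dopamine (EC100) defining full response. Beta-arrestin recruitment detected by chemiluminescent reagent, read after 1 h at ambient temperature.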
TRPML1 inh: qHTS for Inhibitors of the Human Mucolipin Transient Receptor Potential 1 (TRPML1); Mucolipin-1 (Homo sapiens), Q9GZU1; TRPML1-inducible cells, Ca2+ dye fluorescence, FDSS; hits give low values; inhibition of EC80 agonist-evoked calcium signal; activity change, negative = inhibition, % (test concentration not listed); hit rate 0.02% among 390,000; AID 624415, 2012; in the data active means activity change below about -50%; inconclusive means about -30% to -50%; inactive means above about -30%;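 further: stimulus is agonist 54-4 at its EC80 concentration; on the % scale 0 is the no-effect control and ±100 the full control effect; compound concentration not given in the record; the text of the record puts the active cut at -80%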
Target sequence (Q9GZU1 whole entry, looked up): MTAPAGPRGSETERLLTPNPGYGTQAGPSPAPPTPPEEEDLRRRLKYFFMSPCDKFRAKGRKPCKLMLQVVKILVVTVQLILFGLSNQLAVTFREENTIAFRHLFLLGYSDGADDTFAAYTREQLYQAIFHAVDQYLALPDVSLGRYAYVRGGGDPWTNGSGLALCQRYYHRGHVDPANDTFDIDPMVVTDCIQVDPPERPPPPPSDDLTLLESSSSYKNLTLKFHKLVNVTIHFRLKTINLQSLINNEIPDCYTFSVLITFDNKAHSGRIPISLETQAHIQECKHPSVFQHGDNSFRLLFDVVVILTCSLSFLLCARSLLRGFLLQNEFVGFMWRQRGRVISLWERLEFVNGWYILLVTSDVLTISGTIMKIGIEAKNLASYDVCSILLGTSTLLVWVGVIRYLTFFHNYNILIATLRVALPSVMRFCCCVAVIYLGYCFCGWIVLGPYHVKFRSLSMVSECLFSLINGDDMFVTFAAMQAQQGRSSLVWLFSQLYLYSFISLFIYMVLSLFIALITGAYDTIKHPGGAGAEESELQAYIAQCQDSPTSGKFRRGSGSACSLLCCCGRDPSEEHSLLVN
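Tet-induced TRPML1-DL cells loaded with Ca8 no-wash calcium dye were read kinetically on FDSS. Compound addition was followed by EC80 agonist 54-4 (4 uM final); inhibition was read over 110 s.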
Six1-Eya2 blk: qHTS Assay for Inhibitors of the Six1/Eya2 Interaction; AID 651725, 2012; AlphaScreen GST-Six1/His-Eya2 binding, biochemical; hits give low values; control for the full effect not named in the record; activity change, % (concentration not given with the values); hit rate 0.56% among 360,000; in the data active = activity change below about -65%; inconclusive = about -30% to -65%; inactive = above about -30%; further: on the % scale 0 is the no-effect control and ±100 the full control effect
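Six1/Eya2 binding was read as AlphaScreen signal after compounds were pinned into GST-Six1 plus His-tagged Eya2 (5X stock 250/500 nM) in pH 8.0 Tris/NaCl/TCEP buffer, beads added, then incubated 1 h, 37 C, dark.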
PINK1 modulator: A Quantitative High throughput Screen to Identify Chemical Modulators of PINK1 Expression. hit rate 0.2% among 410,000. PINK1 immunofluorescence, high-content cytometry, 24 h. Potency, µM (top dose mostly 76.6 µM), for inactives: top-dose activation (PINK1 increase), most hits filed as activators; active = well fitted activation curve with a large enough effect; inconclusive = small, poorly fitted or top-dose-only effect; inactive = flat fitted curve, though single readings scatter; cell line not stated here;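 further: potency means the concentration at half of the fitted maximal effect; % of control where 0% means no effect; nearly all actives have a fitted effect of over 65% in size; a mitochondrial uncoupler was the plate control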
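Fluorescence from anti-PINK1 antibody, together with nuclear and cell stains, was scanned on a laser-scanning cytometer. Before staining, stable-line cells were incubated 24 hours with compounds at 5 concentrations; primary antibody 12 h at 10 degrees C.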
TRPML1 ag: qHTS for Agonists of the Human Mucolipin Transient Receptor Potential 1 (TRPML1) | AID 624414, 2012 | Mucolipin-1 (Homo sapiens), Q9GZU1 | hit rate 0.12% among 410,000 | TRPML1-expressing cells, Ca2+ dye fluorescence, FDSS; host cell line not named in the record; reference of the full effect not given here | activation, % (test concentration not listed); in the data active = activation above about 50%; inconclusive = about 30% to 50%; inactive = below about 30%; further: 0% is about no effect; the text of the record puts the active cut at 80%
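Kinetic FDSS Ca2+ read in Tet-induced TRPML1-DL cells (ABD Ca8 dye plus quencher, 45-90 min RT loading): baseline, then compound, then 110 s agonist window; EC80 agonist 54-4 at 4uM final added afterwards for a 110 s antagonist window.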
* = called active by the depositor; ? = inconclusive; / = not tested or not shown; & = joins results of further samples; [ ] = remark or other dose.

SMILES	CtBP-E1A inh	D2 agonist	TRPML1 inh	Six1-Eya2 blk	PINK1 modulator	TRPML1 ag
CCOC(=O)C1CCN(C(=O)C2CCN(S(=O)(=O)CC)CC2)CC1	8	4.3	29	8	3.0%[38.3 µM]	1.3
Cc1ccc(S(=O)(=O)N2CCOCC2)cc1NC(=O)CNCc1ccc(Cl)cc1Cl	/	1.3	10	-3	3.8%	-1.0
CCC1(C)CC(=O)c2c(ccc3oc(C(=O)NCc4ccccc4)c(C)c23)O1 (stereo not drawn)	/	/	-16	/	1.2%	50*
Cc1ccccc1Nc1nn2c(=O)c3ccc(C(=O)NCc4cccs4)cc3nc2s1	/	/	-15	/	3.6%	1.9
Cc1ccc(C)c(N2CCN(C(=O)CN3C(=O)c4ccccc4C3=O)CC2)c1	-4	-3.2	3	-1	7.9%[38.3 µM]	-0.5
CCc1ccc(N(C)S(=O)(=O)c2ccc3[nH]cc(C(=O)NCC4CCCO4)c(=O)c3c2)cc1 (stereo not drawn)	/	/	10	/	2.0%	1.4
Cc1nonc1C(=O)N/N=C/c1ccc(O)cc1	-7	0.6	1	-7	1.3%	-1.0
COc1cccc(C(=O)NC2(C(F)(F)F)C(=O)Nc3c2c(=O)[nH]c(=O)n3-c2ccc(C)cc2)c1 (stereo not drawn)	/	/	9	/	0.4%	-0.3
O=c1c2ccccc2c(/C=N/c2ncn[nH]2)c(O)n1Cc1ccccc1	?	2.0&-3.8	0&-12	-20&-13	6.1%&5.7%	-0.7&-0.3
CCc1cccc(C)c1NC(=O)COC(=O)Cc1ccccc1	1	-0.9	21	7	-0.1%	-1.0
CC1=C(C(=O)N2CCOCC2)C(c2cccc(C)c2)NC(=S)N1 (stereo not drawn)	1	-3.9	27	0	1.5%	-0.6
CCc1ccc2[nH]c(O)c(N=Nc3nc(-c4ccccc4)cs3)c2c1	-20	-5.8	-3	?	5.6%	0.6
Cc1c(C(=O)Nc2ccc(F)c(Cl)c2)sc2nc3n(c(=O)c12)CCC3	/	/	10	/	-0.5%	0.9
CCOCCCN(CCC#N)S(=O)(=O)c1ccc(S(=O)(=O)N2CCCC2)cc1	6	0.8	4	2	0.4%[38.3 µM]	0.3
O=C(c1ccccc1[N+](=O)[O-])N1CCN(c2ccc(N3CCOCC3)nn2)CC1	12	-1.0	-8	1	1.0%	-0.3
CCOC(=O)c1nnn(-c2nonc2N)c1CN(CC)c1ccccc1	-3	-2.5	17	8	-0.9%	2.5
CCOC(=O)Cc1csc(NC(=O)c2c(C)noc2C)n1	-14	5.2	17	-2	1.6%	0.6
Cc1cccc(C)c1OCC(=O)N(Cc1cccs1)C1CCS(=O)(=O)C1 (stereo not drawn)	-9	-4.7	2	0	-1.0%	0.6
O=C(CCCCCN1C(=O)c2ccccc2C1=O)NCc1ccco1	8	-1.1	7	-1	-2.1%	-0.5
Cn1c(=O)oc2cc(S(=O)(=O)NC3CCCCCCC3)ccc21	-6	1.1	7	-2	-0.4%	0.1
COc1ccc(CNC(=O)[C@@H]2CC=C[C@@H]3CCN(Cc4ccc(Cl)c(Cl)c4)C(=O)[C@@H]32)cc1	/	-1.7	17	-12	5.6%	-0.2&-0.4
Cc1cccc(N(C)c2ccc3cc(S(=O)(=O)N4CCCC4)ccc3n2)c1	32	-0.8	32&-2	38	0.8%&1.9%	0.2&1.7
O=C(/C=C\Nc1cccc(F)c1)c1cccs1	10	-1.1	1	-2	1.0%	0.1
CC(C)C(c1nnnn1C1CCCC1)N1CCN(C(=O)c2ccco2)CC1 (stereo not drawn)	4	-6.2	13	-2	/	0.3
COc1cccc(-c2cc(C(=O)NCCc3ccc(OC)c(OC)c3)no2)c1	/	/	2	/	1.4%	-0.1
COc1ccc2c(c1)OC[C@H]1[C@H]2N2C(=O)c3cc(Br)ccc3NC(=O)[C@@]2(C)[C@H]1c1ccccc1	-3	-1.1	28	-6	1.9%	0.7
CCCCN(CCCC)CCNC(=O)c1cn(C)c2ccc(S(=O)(=O)N3CCCC3)cc2c1=O	11	-2.3	-6&-8	6	-1.3%&3.9%	-0.3&-0.4
Fc1ccc(-n2cc(-c3ccccc3)c3c(NN4CCOCC4)ncnc32)cc1	-7	-11	22	-14	1.7%	0.5
CCOC(=O)C[C@H]1c2ccc(C(F)(F)F)cc2S(=O)(=O)N1c1ccccc1	0	4.7	-13	10	3.4%	-0.2&-0.7
O=C(CSc1ncn[nH]1)N/N=C/c1ccc(Br)cc1	/	0.8	3	3	-1.0%	3.3
COc1ccc(C(C#N)Nc2ccc(C)cc2)cc1 (stereo not drawn)	8	-3.0	27	1	-1.3%	0.5
Cc1ccc(C(=O)CNc2ccc(C)cc2C)cc1	-15	-16	-3	-18	2.3%	-0.1
CCn1c(SCCC(=O)O)nnc1-c1cccnc1	5	-2.7	8	2	2.7%	-0.7
COc1ccc(S(=O)(=O)NCc2cccn2Cc2cccc(C)c2)cc1OC	/	/	9	/	-0.3%	3.9
CC12CCC(=O)C=C1CCC1C2C(O)CC2(C)C1CCC2(O)C(=O)COC(=O)COCC(=O)O (stereo not drawn)	1	1.5	-19	5	14%	1.1
Cc1ccc(S(=O)(=O)c2c[nH]c3ccc(C)cc3c2=O)cc1	-1	-13	/	-20	5.4%	/
CCOC(=O)c1c(CN2CCN(CCO)CC2)n(-c2ccccc2)c2cc(Br)c(O)cc12	-4	-2.3	0	-5	-2.9%	1.6
CCCCn1c(=S)[nH]c2ncccc2c1=O	-1	-0.4	-13	9	1.7%	0.5
CCOC(=O)[C@@H]1[C@H]2COc3ccccc3[C@@H]2N2C(=O)N(c3ccc(C)cc3)C(=O)[C@@]12C	1	-3.5	39	7	-1.3%	-0.4
Cc1[nH]c2ccccc2c1/C=N/NC(=S)NC(C)C	0	5.2	3	-23	0.3%	0.2
CN1CCN(C(=O)C23CC4CC(C2)CC(c2ccccc2)(C4)C3)CC1	14	-5.4	7	5	0.0%	2.6
CCC(=O)n1nc(-c2ccc(Cl)cc2)nc1N	-3	-9.7	-13	-13	0.0%	1.1
COC(=O)c1ccc(C(=O)N(CCN(C)C)c2nc3c(Cl)cccc3s2)cc1	4	-3.1	-9	2	-0.6%	-0.6
CN1C(=O)/C(=C/c2coc3ccc(O)cc3c2=O)SC1=S	-10	-3.2	-8	-6	?	6.6
COc1ccc(CCN(C(=O)C(F)(F)F)C(C(=O)NC2CCCC2)c2cccs2)cc1 (stereo not drawn)	-6	-1.1	12	-12	?	3.1
CCn1nc(C(=O)N2CCN(Cc3ccc4c(c3)OCO4)CC2)c2ccccc2c1=O	1	-2.2	7	-2	-2.1%	-0.6
CS(=O)(=O)N1CCN(c2ccccc2NC(=O)c2ccc(-c3ccc(Cl)cc3Cl)o2)CC1	9	-2.9	2	0	0.1%	-0.6
CCN1CC(CN(C)Cc2nc(COc3ccccc3)no2)CC1=O (stereo not drawn)	-10	-1.9	2	3	-0.1%	1.1
Cc1cccc(C(=O)NC2CCN(C(=O)NCc3ccccc3)CC2)c1	4	2.6	28	1	0.3%	-0.1
CCOCCCn1c(SCC(=O)NCc2ccc3c(c2)OCO3)nc2ccccc2c1=O	-1	1.3	7	4	4.0%	-0.1
O=C(N/C(=C/c1ccc(Cl)cc1)C(=O)N1CCCC1)c1ccccc1	2	-0.4	-4	5	5.6%	0.7
CCCSc1ccc([C@@H]2[C@@H]3C(=O)N(CC)C(=O)[C@@H]3[C@]3(C(=O)OC)CCCCN23)cc1OC	-14	1.5	30	3	1.6%	0.5
CC(=O)c1sc(NC(=O)c2cc(S(=O)(=O)N3CCOCC3)ccc2F)nc1C	/	3.7	-8	-5	1.4%	-0.6
CC1CCCN(C(=O)CCS(=O)(=O)c2ccc3c(c2)NC(=O)C(C)S3)C1 (stereo not drawn)	/	-0.8	-1	5	-0.6%	-0.1
O=C(Nc1ccc(Cl)cc1)ON=C1CCCC1	0	8.1	-19	22	14%	0.6
CCCCn1c(=NC(=O)c2ccco2)c(C(=O)OCC)cc2c(=O)n3ccccc3nc21	-6	-1.4	-5	-10	-0.5%	-0.9
Cc1nn(Cc2ccc(C(=O)NN)cc2)c(C)c1Cl	3	-0.8	-11	-8	1.0%	1.4
Cc1ccc(-c2cccc(-c3cc(=O)oc4ccc(C(C)(C)C)cc34)c2)cc1	-9	-6.0	22	11	3.5%	-0.3
CN1/C(=C\C=C2/SC(=S)N(CC(=O)O)C2=O)C(C)(C)c2ccccc21	-29	-9.6	-13	?	-0.3%	-0.5
C=CCn1c(SCC(=O)N2CCOCC2)nc2sc3c(c2c1=O)CCCC3	4	0.1	-6	-2	0.0%	-0.1
CCNS(=O)(=O)c1ccc(Br)c(C(=O)OC(C)C(=O)NCC2CCCCC2)c1 (stereo not drawn)	/	-3.2	3	-1	2.3%	-0.9
O=C(N/N=C/c1ccc([N+](=O)[O-])o1)c1cc(-c2cccc(Br)c2)nc2ccccc12	-3	6.5	1	-8	11%	-0.3

Compounds shown so far that contain a Cl atom:
SMILES	CtBP-E1A inh	D2 agonist	TRPML1 inh	Six1-Eya2 blk	PINK1 modulator	TRPML1 ag
Cc1ccc(S(=O)(=O)N2CCOCC2)cc1NC(=O)CNCc1ccc(Cl)cc1Cl	/	1.3	10	-3	3.8%	-1.0
Cc1c(C(=O)Nc2ccc(F)c(Cl)c2)sc2nc3n(c(=O)c12)CCC3	/	/	10	/	-0.5%	0.9
COc1ccc(CNC(=O)[C@@H]2CC=C[C@@H]3CCN(Cc4ccc(Cl)c(Cl)c4)C(=O)[C@@H]32)cc1	/	-1.7	17	-12	5.6%	-0.2&-0.4
CCC(=O)n1nc(-c2ccc(Cl)cc2)nc1N	-3	-9.7	-13	-13	0.0%	1.1
COC(=O)c1ccc(C(=O)N(CCN(C)C)c2nc3c(Cl)cccc3s2)cc1	4	-3.1	-9	2	-0.6%	-0.6
CS(=O)(=O)N1CCN(c2ccccc2NC(=O)c2ccc(-c3ccc(Cl)cc3Cl)o2)CC1	9	-2.9	2	0	0.1%	-0.6
O=C(N/C(=C/c1ccc(Cl)cc1)C(=O)N1CCCC1)c1ccccc1	2	-0.4	-4	5	5.6%	0.7
O=C(Nc1ccc(Cl)cc1)ON=C1CCCC1	0	8.1	-19	22	14%	0.6
Cc1nn(Cc2ccc(C(=O)NN)cc2)c(C)c1Cl	3	-0.8	-11	-8	1.0%	1.4
